# Compound activity as filed in PubChem.
# Ecoli rRNA inh – reduced GFP signal of wild-type E. coli, primary screen, bacterial rRNA inhibitor project, GFP/RFP fluorescence, OD600, single point | GFP signal change (wild-type ribosome), % (concentration not given with the values) | E. coli WT GFP vs humanized-ribosome RFP mutants, 24 h; active compounds read low; DMSO median 0, no signal -100 | 350,000 compounds, 1.6% hits;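 active = significant combined selectivity score with lowered wild-type GFP, culture density cut under 30%, mutant RFP and density less affected; inactive = any of these conditions unmet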; note: one replicate is shown; some compounds called inactive have numbers as strong as hits
# FGF22 binding – binders of human FGF22 protein, primary screen, FGF22 synaptogenesis inhibitor project, biophysical, thermal shift, single point. Fibroblast growth factor 22 (Homo sapiens), Q9HCT0. recombinant FGF22 thermal shift, SYPRO orange fluorescence; percent of sucrose octasulfate shift, DMSO zero. calls only at 9.99 µM. 340,000 compounds, 1.5% hits;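 active = melting point raised past a set limit in the mean and every replicate; inconclusive = no clear call; three in four hits are not shown here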
# Target sequence (Q9HCT0 whole entry, looked up): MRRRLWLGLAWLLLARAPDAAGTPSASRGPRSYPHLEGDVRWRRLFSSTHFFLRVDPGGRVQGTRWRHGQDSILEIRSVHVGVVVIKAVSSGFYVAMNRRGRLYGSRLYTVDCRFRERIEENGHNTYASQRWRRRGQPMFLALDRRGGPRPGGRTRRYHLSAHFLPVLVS
# AF4-AF9 inh – inhibitors of AF4 peptide binding to AF9, primary screen, biochemical, AlphaScreen, biotin-AF4 peptide, FLAG-AF9, single point. 350,000 compounds, 0.47% hits. AID 651704, 2012. inhibition, % at 10 µM. Protein AF-9 (Homo sapiens), P42568;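 active = every replicate reaching a set inhibition limit, whatever the replicate mean, cut at about 25% in these data; inconclusive = mean inhibition reaches that limit but some replicates miss it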;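 note: 0% = plate neutral control median and 100% = total signal loss; the record names both 10 and 1 µM as test concentration; the first replicate is given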
# Target sequence (P42568 whole entry, looked up): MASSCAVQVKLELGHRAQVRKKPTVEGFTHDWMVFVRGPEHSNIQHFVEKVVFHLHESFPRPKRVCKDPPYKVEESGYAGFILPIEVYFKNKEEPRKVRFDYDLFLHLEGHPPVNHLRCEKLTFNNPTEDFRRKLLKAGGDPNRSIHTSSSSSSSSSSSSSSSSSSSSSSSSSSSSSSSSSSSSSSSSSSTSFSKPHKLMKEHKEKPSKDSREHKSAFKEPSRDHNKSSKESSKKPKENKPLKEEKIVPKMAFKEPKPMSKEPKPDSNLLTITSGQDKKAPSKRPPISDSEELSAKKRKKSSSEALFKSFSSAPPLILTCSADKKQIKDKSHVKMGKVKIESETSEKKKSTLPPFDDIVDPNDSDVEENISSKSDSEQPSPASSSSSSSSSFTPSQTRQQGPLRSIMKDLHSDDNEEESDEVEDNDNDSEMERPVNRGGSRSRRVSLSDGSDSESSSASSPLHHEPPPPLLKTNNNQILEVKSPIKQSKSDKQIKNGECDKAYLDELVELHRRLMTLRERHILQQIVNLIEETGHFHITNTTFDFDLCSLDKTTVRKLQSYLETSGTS
# Ecoli rRNA inh OD600 – second read-out of Ecoli rRNA inh, no call of its own (marks repeat the call); OD600 change, %; measured here: OD600 growth;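 optical density of the mix in the first replicate; 0 = DMSO median and -100 = no signal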
# Ecoli rRNA inh RFP – second read-out of Ecoli rRNA inh, no call of its own (marks repeat the call); RFP signal change, %; measured here: RFP humanized mutant strains;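 first replicate; 0 = DMSO median and -100 = no signal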
# Starred values were filed as active, the others as inactive; i = inactive; ? = inconclusive; / = no result given; & = joins results of further samples.
No.	structure	Ecoli rRNA inh OD600	AF4-AF9 inh	Ecoli rRNA inh	FGF22 binding	Ecoli rRNA inh RFP
1	C[C@H](CO)N1C[C@H](C)[C@H](CN(C)C(=O)c2ccncc2)Oc2cc(C3=CCCCC3)ccc2S1(=O)=O	-0.7	0.7	0.6	i	1.4
2	C[C@@H]1CN([C@@H](C)CO)C(=O)c2cc(NC(=O)c3ccccc3)ccc2O[C@@H](C)CCCCO[C@@H]1CN(C)CC1CCCCC1	-12.7	11.2	2.1	i	5.3
3	C[C@H]1CN([C@@H](C)CO)C(=O)CCCn2nncc2CO[C@H]1CN(C)C(=O)Nc1cccc2ccccc12	-0.1&1.6	-2.1&-1.4	0.3&17.9	i	0.1&-0.6
4	C[C@@H]1CN([C@@H](C)CO)C(=O)c2cc(-c3ccc(F)cc3)cnc2O[C@H]1CN(C)Cc1ccccn1	-1.1	-3.7	-3.1	i	-2.0
5	C[C@@H]1CN([C@@H](C)CO)C(=O)c2cc(NC(=O)C3CCCCC3)ccc2O[C@@H](C)CCCCO[C@@H]1CN(C)C(=O)Nc1ccccc1	-4.3	-0.2	1.1	i	0.6
6	COc1ccc2c3c(n(C)c2c1)[C@@H](CO)N(C(=O)Nc1ccc(F)cc1)CC31CN(S(=O)(=O)c2cccc(C)c2)C1	8.3	0.1	0.7	i	0.3
7	C[C@H](CO)N1C[C@H](C)[C@@H](CN(C)C(=O)CC2CC2)Oc2ncc(C#Cc3cccnc3)cc2C1=O	7.0	-17.7	5.4	i	-5.0
8	C[C@@H]1CN([C@@H](C)CO)C(=O)c2cc(NC(=O)c3ccncc3)ccc2O[C@@H]1CN(C)C(=O)Nc1ccc(F)cc1	6.5	-0.9	2.2	i	0.0
9	C[C@@H]1CN([C@H](C)CO)C(=O)c2cccc(NC(=O)Nc3ccccc3)c2O[C@@H]1CN(C)Cc1ccccc1	-1.6	1.8	-1.6	i	-0.3
10	C[C@H](CO)N1C[C@H](C)[C@@H](CN(C)S(=O)(=O)c2ccccc2)OCCCC[C@H](C)Oc2ccc(NC(=O)CCC(F)(F)F)cc2C1=O	0.8	?	-1.5	i	-1.8
11	Cc1ccccc1S(=O)(=O)NCC[C@@H]1CC[C@H](NC(=O)C2CCCCC2)[C@@H](CO)O1	2.0	-1.2	1.7	i	-0.9
12	COc1ccc2c3c(n(C)c2c1)[C@@H](CO)N(Cc1ccc(Cl)cc1)CC31CCN(C(=O)NC(C)C)CC1	-4.7	-2.6	4.1	i	-2.1
13	C[C@H](CO)N1C[C@H](C)[C@H](CN(C)Cc2ccccn2)Oc2ncc(-c3cccc(F)c3)cc2C1=O	3.0	-4.2	2.0	i	-0.1
14	Cc1ccc(S(=O)(=O)N(C)C[C@H]2Oc3c(NC(=O)c4ccncc4)cccc3C(=O)N([C@@H](C)CO)C[C@H]2C)cc1	-3.0	-3.5	-7.2	i	0.3
15	COc1ccccc1CNC(=O)C[C@@H]1CC[C@@H]2[C@H](COC[C@H](O)CN2C(=O)Nc2ccc(C(F)(F)F)cc2)O1	-79.4	-1.3	-55.0	i	-15.7
16	COc1ccc(CN(C)C[C@@H]2Oc3ccc(NC(=O)Nc4c(C)noc4C)cc3CC(=O)N([C@@H](C)CO)C[C@@H]2C)cc1	1.6	-0.9	-0.8	i	-2.0
17	CN(C)CC#Cc1ccc([C@H]2[C@H](CO)N3CCCCN(C(=O)NC4CCCC4)C[C@@H]23)cc1	7.8	2.5	3.0	i	1.4
18	CCS(=O)(=O)Nc1ccc2c(c1)C(=O)N(C)C[C@@H](OC)[C@H](C)CN(Cc1ccccn1)[C@H](C)CO2	4.3	-2.0	-1.1	i	0.9
19	CC=Cc1ccc2n(c1=O)C[C@@H]1[C@@H](CO)[C@H](C(=O)NC3Cc4ccccc4C3)N(CC3CC3)[C@H]21 (mixture of isomers)	-22.9	3.3	-12.3	i	7.4
20	O=C(C[C@H]1C[C@@H]2c3cc(NC(=O)c4ccc5c(c4)OCO5)ccc3O[C@@H]2[C@@H](CO)O1)NC1CCCCC1	-12.1	3.7	-7.3	i	4.3
21	C[C@@H]1CCCCO[C@H](CN(C)S(=O)(=O)c2cccs2)[C@@H](C)CN([C@H](C)CO)C(=O)c2cc(NS(=O)(=O)c3cccs3)ccc2O1	-14.1	-4.1	1.8	i	0.3
22	CN1c2ccc(-c3ccc(F)cc3)cc2[C@H]2[C@H](CCN2C(=O)Cc2cccnc2)[C@@H]1CO	-6.3	1.3	-2.1	i	1.2
23	C[C@@H]1CN([C@@H](C)CO)C(=O)c2cccc(NC(=O)c3ccc(-c4nccs4)cc3)c2O[C@H]1CN(C)Cc1ccc(Oc2ccccc2)cc1	13.7	-4.1	6.7	i	-4.0
24	CCNC(=O)C1(C)CCCN(Cc2noc(-c3c(C)noc3C)n2)C1 (centres undefined)	9.5	-1.2	4.7	i	1.8
25	CCCNC(=O)N(C)C[C@H]1Oc2cc(C#CC(C)(C)O)ccc2S(=O)(=O)N([C@@H](C)CO)C[C@H]1C	8.2	-2.7	1.5	i	1.1
26	CO[C@@H]1CN(C)C(=O)c2cc(NC(C)=O)ccc2OC[C@@H](C)N(CCC(F)(F)F)C[C@@H]1C	-0.7	-15.9	0.1	i	-1.3
27	CCC1Oc2ccccc2N(CC(=O)N2CC(C)CC(C)C2)C1=O (centres undefined)	10.0	-3.3	10.6	i	0.9
28	C[C@@H]1CN([C@@H](C)CO)C(=O)c2cccc(NS(=O)(=O)c3ccc(Cl)cc3)c2O[C@H]1CN(C)C(=O)NC1CCCCC1	0.1	-3.6	-2.5	i	-1.0
29	C[C@H](CO)N1C[C@H](C)[C@H](CN(C)S(=O)(=O)c2ccc(Cl)cc2)Oc2c(NC(=O)Nc3ccc(F)cc3)cccc2C1=O	-15.6	-10.1	-6.2	i	1.9
30	C[C@@H]1CN([C@@H](C)CO)C(=O)Cc2cc(NC(=O)Cc3cn(C)c4ccccc34)ccc2O[C@H]1CN(C)Cc1ccc(C(=O)Nc2ccccc2N)cc1	11.6	0.3	-3.5	i	-2.5

# Sorted by formula weight (falling): part of the list above
No.	structure	Ecoli rRNA inh OD600	AF4-AF9 inh	Ecoli rRNA inh	FGF22 binding	Ecoli rRNA inh RFP
30	C[C@@H]1CN([C@@H](C)CO)C(=O)Cc2cc(NC(=O)Cc3cn(C)c4ccccc34)ccc2O[C@H]1CN(C)Cc1ccc(C(=O)Nc2ccccc2N)cc1	11.6	0.3	-3.5	i	-2.5
23	C[C@@H]1CN([C@@H](C)CO)C(=O)c2cccc(NC(=O)c3ccc(-c4nccs4)cc3)c2O[C@H]1CN(C)Cc1ccc(Oc2ccccc2)cc1	13.7	-4.1	6.7	i	-4.0
5	C[C@@H]1CN([C@@H](C)CO)C(=O)c2cc(NC(=O)C3CCCCC3)ccc2O[C@@H](C)CCCCO[C@@H]1CN(C)C(=O)Nc1ccccc1	-4.3	-0.2	1.1	i	0.6
29	C[C@H](CO)N1C[C@H](C)[C@H](CN(C)S(=O)(=O)c2ccc(Cl)cc2)Oc2c(NC(=O)Nc3ccc(F)cc3)cccc2C1=O	-15.6	-10.1	-6.2	i	1.9
2	C[C@@H]1CN([C@@H](C)CO)C(=O)c2cc(NC(=O)c3ccccc3)ccc2O[C@@H](C)CCCCO[C@@H]1CN(C)CC1CCCCC1	-12.7	11.2	2.1	i	5.3
16	COc1ccc(CN(C)C[C@@H]2Oc3ccc(NC(=O)Nc4c(C)noc4C)cc3CC(=O)N([C@@H](C)CO)C[C@@H]2C)cc1	1.6	-0.9	-0.8	i	-2.0
6	COc1ccc2c3c(n(C)c2c1)[C@@H](CO)N(C(=O)Nc1ccc(F)cc1)CC31CN(S(=O)(=O)c2cccc(C)c2)C1	8.3	0.1	0.7	i	0.3
12	COc1ccc2c3c(n(C)c2c1)[C@@H](CO)N(Cc1ccc(Cl)cc1)CC31CCN(C(=O)NC(C)C)CC1	-4.7	-2.6	4.1	i	-2.1
9	C[C@@H]1CN([C@H](C)CO)C(=O)c2cccc(NC(=O)Nc3ccccc3)c2O[C@@H]1CN(C)Cc1ccccc1	-1.6	1.8	-1.6	i	-0.3
1	C[C@H](CO)N1C[C@H](C)[C@H](CN(C)C(=O)c2ccncc2)Oc2cc(C3=CCCCC3)ccc2S1(=O)=O	-0.7	0.7	0.6	i	1.4
18	CCS(=O)(=O)Nc1ccc2c(c1)C(=O)N(C)C[C@@H](OC)[C@H](C)CN(Cc1ccccn1)[C@H](C)CO2	4.3	-2.0	-1.1	i	0.9
19	CC=Cc1ccc2n(c1=O)C[C@@H]1[C@@H](CO)[C@H](C(=O)NC3Cc4ccccc4C3)N(CC3CC3)[C@H]21 (mixture of isomers)	-22.9	3.3	-12.3	i	7.4
11	Cc1ccccc1S(=O)(=O)NCC[C@@H]1CC[C@H](NC(=O)C2CCCCC2)[C@@H](CO)O1	2.0	-1.2	1.7	i	-0.9

# (next part)
No.	structure	Ecoli rRNA inh OD600	AF4-AF9 inh	Ecoli rRNA inh	FGF22 binding	Ecoli rRNA inh RFP
31	Cc1ccc(S(=O)(=O)N(C)C[C@H]2Oc3ccc(NC(=O)Cc4cn(C)c5ccccc45)cc3C(=O)N([C@H](C)CO)C[C@@H]2C)cc1	1.0	0.4	-2.6	i	0.7
32	CO[C@H]1CN(C)C(=O)c2cc(NC(=O)c3ccccc3)ccc2OC[C@H](C)N(C(=O)CN(C)C)C[C@H]1C	5.6	1.5	3.1	i	0.0
33	O=C(C1CCCCC1)N1C[C@H]2[C@@H](c3ccccc31)[C@@H](CO)N2CC1CCOCC1	-2.7	1.4	-1.4	i	-2.7
34	CO[C@@H]1CN(C)C(=O)c2cc(NC(=O)Nc3c(C)noc3C)ccc2OC[C@H](C)N(C)C[C@@H]1C	1.0	-1.9	2.1	i	0.5
35	Cc1ccc(S(=O)(=O)Nc2ccc3c(c2)CC(=O)N([C@@H](C)CO)C[C@@H](C)[C@@H](CN(C)Cc2ccc(-c4ccccc4)cc2)O3)cc1	-1.2	1.2	2.2	i	-0.5
36	C[C@@H]1CCCCO[C@H](CN(C)C)[C@@H](C)CN([C@H](C)CO)C(=O)c2cc(NS(=O)(=O)c3ccc(F)cc3)ccc2O1	0.7	0.0	3.6	i	-0.8
37	COCCCNC(=O)c1cccc2c(-c3cccc(C(N)=O)c3)coc12	-14.2	-5.3	-7.7	i	-4.4
38	Cc1ccccc1S(=O)(=O)N1CCCc2nc(C)c(C)cc21	-55.7	-3.5	-35.8	/	-3.5
39	CC(C)C[C@H]1COc2ccc(Cl)cc2S(=O)(=O)N1	11.5	-1.1	13.6	i	4.8
40	C[C@H](NC(=O)C[C@@H]1C[C@H]2c3cc(NS(=O)(=O)c4ccc(F)cc4)ccc3O[C@H]2[C@H](CO)O1)c1ccccc1	-19.9	1.5	-5.8	i	-1.3
41	Nc1[nH]c(C(=O)c2ccccc2)c(-c2ccc(Br)cc2)c1C(=O)c1cccs1	-9.3*	1.1	-33.6*	i	6.5*
42	O=C(C[C@@H]1C=C[C@H](NC(=O)Nc2ccc(F)cc2)[C@@H](CO)O1)NCCN1CCCC1	2.9	4.6	1.2	i	0.9
43	CN(C)c1ccc(C(=O)N2CCC2(C)C(=O)O)cc1 (centres undefined)	8.3	-1.5	4.6	i	-0.9
44	CO[C@H]1CN(C)C(=O)c2cc(NS(=O)(=O)c3ccccc3)ccc2OC[C@@H](C)NC[C@@H]1C	3.3	-1.2	3.8	i	-0.5
45	C[C@@H]1CN([C@@H](C)CO)S(=O)(=O)c2ccc(C#Cc3ccccc3F)cc2O[C@@H]1CN(C)CC1CC1	-8.8	0.4	-2.1	i	13.0
46	COc1cc(CNc2ccc(S(N)(=O)=O)cc2)ccc1OCc1ccccc1F	-20.4	-2.0	-16.5	i	-1.7
47	CO[C@@H]1CN(C)C(=O)c2cc(NC(=O)Nc3ccccc3F)ccc2OC[C@H](C)N(Cc2ccccc2C(=O)O)C[C@H]1C	5.8	-5.2	3.0	i	0.6
48	CC=Cc1ccc2n(c1=O)C[C@@H]1[C@@H](CO)[C@H](C(=O)NCC)N(C(=O)c3cccnc3)[C@H]21 (mixture of isomers)	-4.1	-2.4	-0.8	i	-0.7
49	CCCN(C)C[C@H]1Oc2cc(/C=C/c3ccccc3)ccc2S(=O)(=O)N([C@H](C)CO)C[C@H]1C	-12.2	14.9	-1.0	i	7.6
50	N#C[C@@H]1[C@@H](c2ccc(C3=CCCC3)cc2)[C@@H](CO)N1S(=O)(=O)c1ccccc1	-1.6	-2.9	0.9	i	-0.2
51	COc1ccc(NC(=O)Nc2cccc3c2O[C@H](CN(C)C)[C@@H](C)CN([C@@H](C)CO)C3=O)cc1	2.1	-2.8	-0.6	i	0.5
52	O=C(Nc1ccccc1F)N[C@H]1CC[C@@H](CCNC(=O)C2CCC2)O[C@@H]1CO	6.3	-3.1	2.0	i	-3.9
53	C[C@@H]1CN([C@H](C)CO)S(=O)(=O)c2ccc(C#Cc3ccc(F)cc3)cc2O[C@@H]1CN(C)S(=O)(=O)c1cn(C)cn1	-1.8	1.4	-0.6	i	7.8

# Not all compounds are listed, so the mix of outcomes need not match the whole.
